Screens from PubChem.
miR-21 reporter: qHTS Assay for Modulators of miRNAs and/orActivators of miR-21. HeLa miR-21 FLuc reporter, luciferase, 48 h. 340,000 tested, under 10 active. Potency, µM (highest dose often 38.3 µM), inactives show at the top dose reporter change, positive = more light; active = well fitted rising curve with a large enough effect; inconclusive = small, poorly fitted or top-dose-only effect; inactive = no such curve, though single readings can be large or run the other way;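 note: % of control where 0% means no effect; miR-21 action dims this reporter so a rising signal means less miR-21 action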
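HeLa cells stably expressing CMV-driven firefly luciferase with a downstream miR-21 binding sequence, endogenously expressing miR-21, were treated with titrations (up to about 40uM final) for 48 hours at 37 degree Celsius. Luciferase luminescence was read after lysis.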
Starred values were filed as active, the others as inactive; ? = inconclusive. These rows are one share of the data, so the mix of outcomes need not match the whole.

SMILES	miR-21 reporter
COc1ccc(NC(=O)Cn2c(=O)c3cccn3c3ccccc32)cc1	5%
O=C(Nc1nnc(S(=O)(=O)N2CCc3ccccc32)s1)c1ccccc1Cl	-2%
COc1ccc(-n2c(=O)c3c(c4cc(OC)ccc4n3C)n(C)c2=O)cc1	2%
COc1ccccc1NC(=O)CSc1cn(CC(=O)N2CCCC2)c2ccccc12	13%
CCc1ccc(S(=O)(=O)c2nnn3c2nc(NC2CCCC2)c2sccc23)cc1	-17%
Cc1ccc(S(=O)(=O)C(CNC(=O)C(=O)NCCc2ccc(Cl)cc2)c2ccco2)cc1 (stereo not given)	0%
COc1ccc2c(CNCCc3ccco3)c(C(=O)O)n(Cc3ccc(F)cc3)c2c1	-15%
CC(C)(C)c1ccc(C(=O)Nc2nnc3n2CCS3)cc1	1%
COc1ccc(S(=O)(=O)c2c(O)c(C)cc(NS(=O)(=O)c3ccc(Cl)cc3)c2C(C)C)cc1	28%
O=C(NC1CCCC1)c1ccc(CSc2nc3cccnc3n2Cc2ccccc2)cc1	1%
COc1ccccc1NC(=O)c1oc2ccccc2c1NC(=O)COc1ccccc1OC	-3%
COc1ccc(CNC(=O)Cn2c(=O)oc3cc(S(=O)(=O)NCc4ccccc4)ccc32)cc1	12%
Cc1ccc(-n2nc(C(=O)Nc3cccc(C#N)c3)c3c4ccccc4n(C)c3c2=O)cc1	-5%
O=C(NCc1ccc(Cl)cc1)C1CCN(c2nn3cc(-c4ccc(F)cc4)nc3s2)CC1	-22%
CC(C)c1ccc(C2=CC(c3ccc(C(C)C)cc3)n3nnnc3N2)cc1 (stereo not given)	-41%
Cc1ccc(CNC(=O)Cn2c(=O)n(-c3cccc(Cl)c3)c(=O)c3sc4ccccc4c32)cc1	-3%
COc1ccccc1N1CCN(c2ccc(-c3nc(-c4ccccc4)no3)cc2[N+](=O)[O-])CC1	0%
COc1ccc(-c2nc(C)c(CCNC(=O)c3ccc(F)c(F)c3)s2)cc1	-35%
CCc1ccc(-n2c(=O)c3c(C)c(C)sc3n(CC(=O)NCc3ccc(C)cc3)c2=O)cc1	-2%
O=C(Nc1ccccc1)c1cccc(S(=O)(=O)Nc2cccc(F)c2)c1	28%
CCC(=O)N1CCc2cc(Br)cc(S(=O)(=O)CCC(=O)N(C)c3cccc(C)c3)c21	3%
Cc1onc(-c2c(F)cccc2Cl)c1C(=O)Nc1ccc(OC(C)C)cc1	3%
O=C(c1ccco1)c1cn(CCOc2ccc(F)cc2)c2ccccc12	2%
Cc1ccc(NC(=O)c2cc(S(=O)(=O)NCCc3ccc(Cl)cc3)ccc2F)cc1	20%
Cc1cccc(NC(=O)Cn2nc(-c3ccc(Cl)cc3)c3ccccc3c2=O)c1	-7%

Reformatted: entries from further up
CCc1ccc(-n2c(=O)c3c(C)c(C)sc3n(CC(=O)NCc3ccc(C)cc3)c2=O)cc1
  miR-21 reporter: -2%
O=C(Nc1ccccc1)c1cccc(S(=O)(=O)Nc2cccc(F)c2)c1
  miR-21 reporter: 28%
CCC(=O)N1CCc2cc(Br)cc(S(=O)(=O)CCC(=O)N(C)c3cccc(C)c3)c21
  miR-21 reporter: 3%
Cc1onc(-c2c(F)cccc2Cl)c1C(=O)Nc1ccc(OC(C)C)cc1
  miR-21 reporter: 3%

Next part:
SMILES	miR-21 reporter
CCc1ccc(NC(=O)Cn2c(=O)n(CCCCC(=O)NCc3ccc4c(c3)OCO4)c(=O)c3ccccc32)cc1	2%
CCOc1ccc(-n2c(SCC(=O)Nc3ccccc3OC)nc3c(oc4ccccc43)c2=O)cc1	8%
CCn1cc(S(=O)(=O)c2cccc(Cl)c2)c(=O)c2cc(F)c(N3CCN(C)CC3)cc21	-7%
O=C(Cn1cc(C(=O)C2CC2)c2ccccc21)Nc1ccc(Br)cc1	1%
O=C(CCn1c(=O)c2ccccc2n(Cc2cccc(F)c2)c1=O)NCc1ccc2c(c1)OCO2	-9%
CCc1ccc(OCCn2c(C3CC(=O)N(Cc4ccc(F)cc4)C3)nc3ccccc32)cc1 (stereo not given)	24%
COc1cccc(-n2c(-c3ccco3)nc3c(cnn3-c3ccc(Cl)cc3)c2=O)c1	-6%
CC1CCN(S(=O)(=O)c2ccc3c(c2)N(CC(=O)N(C)Cc2ccccc2)C(=O)CO3)CC1	0%
COCCCNC(=O)c1sc2nc(C)c(C(=O)Nc3ccc(Cl)cc3)c(-c3ccc(Br)cc3)c2c1N	-7%
O=C(Nc1ccc(Cl)cc1Cl)c1cc(S(=O)(=O)N2CCN(c3ccccc3F)CC2)ccc1F	-2%
Cc1cc(C)c2c(=O)c3c(oc2c1)C(=O)N(Cc1ccco1)C3c1ccccc1F (stereo not given)	0%
CCCS(=O)(=O)N1CCCC(C(=O)NCCCOC)C1 (stereo not given)	0%
CCOC(=O)c1ccc(NC(=O)CCCn2c(=O)c3cccn3c3cccnc32)cc1	-20%
O=C(COCc1cc(-c2cccs2)on1)Nc1cccc(Cl)c1Cl	-2%
Cc1cc(C)cc(NC(=O)CCc2c(C)nc3c(c2C)c(=O)n(C)c(=O)n3C)c1	-1%
COc1ccc(NC(=O)CN(Cc2ccccc2)S(=O)(=O)c2ccc3nc(C)sc3c2)cc1	12%
Cc1ccccc1NC(=O)Cn1cc(S(=O)(=O)N2CCCC2)c(S(=O)(=O)N2CCCC2)c1	1%
COc1ccc(NC(=O)CSc2nc3ncccc3[nH]2)c(OC)c1	-13%
O=C(NCC(c1cccnc1)N1CCc2ccccc21)C(=O)Nc1ccccc1F (stereo not given)	-16%
COc1ccc(C2=CC(c3cc(Br)ccc3F)n3c(nc4ccccc43)N2)cc1 (stereo not given)	8%
Cc1ccc(NC(=O)CCCn2c(=O)c3cccn3c3cccnc32)c(Cl)c1	-15%
CCOc1ccc(C(=O)c2c(N)c(-c3nc(-c4ccc(OCC)cc4)cs3)c3ccccn23)cc1	-6%
CCn1ccc2cc(S(=O)(=O)N3CCC(C(=O)NCCc4ccc(SC)cc4)CC3)ccc21	0%
COc1ccccc1CNC(=O)c1cc(S(=O)(=O)N2CCCCCC2)cn1C	13%
Cc1cccc(NC(=O)CSc2c(C)cnc3c2c(=O)n(C)c(=O)n3C)c1C	-1%

(listing goes on)
SMILES	miR-21 reporter
CCOc1ccc(-c2cc3c(=O)n(Cc4nc(-c5ccc(OC)cc5OC)oc4C)ccn3n2)cc1Cl	-33%
N#Cc1c[nH]n2c(NC3CCCCC3)c(-c3ccccc3F)nc12	2%
Cc1cc(C)cc(NC(=O)CSc2oc(-c3cccs3)nc2S(=O)(=O)c2ccccc2)c1	-13%
CCC1CCCCN1S(=O)(=O)c1cc2c3c(c1)CC(=O)N3CCC2 (stereo not given)	-9%
Cc1cn(C)c(CC(=O)Nc2cccc(C#N)c2)c1C(=O)O	-2%
COc1ccc(-c2nc(S(=O)(=O)c3ccccc3)c(N3CCCCC3)o2)cc1	0%
Cc1ccccc1CSc1ncc(CO)n1Cc1ccc(F)cc1	1%
O=C(NCc1cccc(F)c1)c1cccc(NC(=O)c2nsc3ccccc23)c1	-55%
COc1cccc(CNC(=O)CN2N=C(c3ccc(C)cc3)CCC2=O)c1	-3%
Cc1ccc(Cl)cc1N1CCN(CCNC(=O)Nc2ccc(Cl)cc2)CC1	?
O=C(Nc1ccc2nc(SCCOc3ccccc3)sc2c1)c1ccco1	10%
COc1ccc(OC)c(NC(=O)COCc2cc(-c3ccco3)on2)c1	9%
CCOc1ccc(NC(=O)N2CCN(Cc3cc(=O)n4nc(-c5ccc(OC)cc5)sc4n3)CC2)cc1	-2%
CCN(C(=O)C1CCN(S(=O)(=O)c2c(C)noc2/C=C/c2ccc(C)cc2)CC1)c1cccc(C)c1	-1%
Cc1ccc(S(=O)(=O)Nc2cc3c(cc2N2CCOCC2)n(C)c(=O)n3C)cc1	-27%
Cc1cc(NC(=O)c2cnc3c(-c4ccccc4)c(C)nn3c2C)ccc1Br	-2%
COc1ccc(CCNC(=O)c2ccc(-n3c(C)cc4c3CCCC4)cc2)cc1OC	25%
CC(C)C(=O)N1c2ncnn2C2(CCCCC2)[C@@H]2CCCC[C@@H]21	17%
Cc1cccc(NC(=O)Cn2cc(S(=O)(=O)Cc3ccccc3Cl)c3ccccc32)c1	7%
O=C(NCCSc1c(-c2ccc(Cl)cc2)[nH]c2ccccc12)c1ccc(S(=O)(=O)N2CCOCC2)cc1	?
Cc1ccc(-c2nc3n(n2)C(=O)CC(c2ccc(Cl)cc2)S3)cc1 (stereo not given)	-6%
CCC(C)c1ccc(OCC(=O)Nc2cccc(-c3nc4ncccc4o3)c2)cc1 (stereo not given)	-4%
Cc1c2cnn(CC(=O)N3CCN(c4ccc(F)cc4)CC3)c(=O)c2c(C)n1Cc1ccccc1F	?
O=C(Nc1ccc(F)cc1F)c1ccc2c(O)c(S(=O)(=O)c3ccc(Cl)cc3)c(=O)[nH]c2c1	-1%
Cc1cccc(N2CCN(C(=O)c3cnn(-c4cccc(Cl)c4C)c3C3CCNCC3)CC2)c1C	16%

Grouped by structure: the compounds so far with a COOH group (2)
SMILES	miR-21 reporter
COc1ccc2c(CNCCc3ccco3)c(C(=O)O)n(Cc3ccc(F)cc3)c2c1	-15%
Cc1cn(C)c(CC(=O)Nc2cccc(C#N)c2)c1C(=O)O	-2%

The listing picks up; the three compounds before the break are reprinted first.
SMILES	miR-21 reporter
Cc1c2cnn(CC(=O)N3CCN(c4ccc(F)cc4)CC3)c(=O)c2c(C)n1Cc1ccccc1F	?
O=C(Nc1ccc(F)cc1F)c1ccc2c(O)c(S(=O)(=O)c3ccc(Cl)cc3)c(=O)[nH]c2c1	-1%
Cc1cccc(N2CCN(C(=O)c3cnn(-c4cccc(Cl)c4C)c3C3CCNCC3)CC2)c1C	16%
COc1ccc(-n2c(=O)c3c4c(sc3n(Cc3cc(=O)n5c(C)cccc5n3)c2=O)CCC4)c(OC)c1	-23%
CCC(=O)N1c2ccccc2CC1C(=O)NCCc1ccccc1 (stereo not given)	-3%
CCc1ccc(NCc2cc3cc4c(cc3n(CC(=O)Nc3cccc(OC)c3)c2=O)OCO4)cc1	1%
COc1ccc(-c2cccc(NS(=O)(=O)c3cccs3)c2)nn1	-25%
Cc1ccc(-c2nc3ncccc3o2)cc1NC(=O)c1ccc(-c2ccc(Cl)cc2)o1	-5%
O=c1oc2ccc(Br)cc2cc1-c1csc(-c2ccccc2)n1	-3%
Clc1cccc(N2CCN(c3ncnc4c3nc3n4CCCCC3)CC2)c1	?
Cc1ccc(-c2c3c(=O)n(C)c(=O)n(C)c3c3c(-c4cccc(C)c4)nc4ccccc4n23)cc1	0%
CCOc1ccc(OCC)c(NC(=O)c2cc(CN3CCOCC3)on2)c1	-5%
COc1cccc(CNC(=O)CSc2n[nH]c(-c3ccccc3Cl)n2)c1	1%
Cc1ccccc1-c1noc(-c2cccnc2N2CCN(c3ccccc3)CC2)n1	15%
O=C(CSc1nc(-c2ccccc2)nc2c1CCCC2)c1ccc(Cl)cc1	-3%
CCOC(=O)c1c(C)[nH]c(C)c1S(=O)(=O)N1CCCC(C(=O)Nc2cccc(C)n2)C1 (stereo not given)	0%
CCOc1ccc(NC(=O)C2CCC(CNS(=O)(=O)c3ccc4c(c3)CCCC(=O)N4)CC2)cc1 (stereo not given)	8%
Cc1ccc(N2CCN(S(=O)(=O)c3c(C)[nH]c(=O)[nH]c3=O)CC2C)cc1 (stereo not given)	-1%
Cc1ccc(Cn2c(=O)n(CCCCC(=O)NCc3ccccc3Cl)c(=O)c3ccccc32)cc1	19%
CC(C)CC(=O)Nc1ccc2nc(SCC(=O)N3CCOCC3)sc2c1	24%
CCN1CCN(C(=O)c2cnn(-c3ccc(F)cc3F)c2C2CCN(C(=O)OC(C)(C)C)CC2)CC1	0%
CCOC(=O)Cc1ccc(NC(=O)Nc2c[nH]c(=O)[nH]c2=O)cc1	3%
CCOc1ccccc1C(=O)Nc1ccc(S(=O)(=O)N2CCCCC2c2cccnc2)cc1 (stereo not given)	17%
CCCOc1cccc(NC(=O)c2c(-c3ccccc3Cl)noc2C)c1	11%
COc1ccc(-c2nc3nc(C)cc(Nc4ccc(C(C)=O)cc4)n3n2)cc1	9%
Cc1cccc(Cn2nnc3c(=O)[nH]c(C4CCCN(C(=O)c5ccc(C(C)(C)C)cc5)C4)nc32)c1 (stereo not given)	26%
Cc1ccc(S(=O)(=O)c2nnn3c2nc(N2CCN(c4ccccc4F)CC2)c2cc(Cl)ccc23)cc1C	2%
CC(=O)c1cccc(NC(=O)CSc2ncc3c(n2)-c2cc(Cl)ccc2N(Cc2ccccc2)S3(=O)=O)c1	15%

(further entries)
SMILES	miR-21 reporter
COc1cc(-c2nc(-c3ccccc3)c(-c3ccc(Br)cc3)[nH]2)cc(OC)c1O	?
Cc1ccc(/C=C/c2onc(C)c2S(=O)(=O)N2CCC(C(=O)N3CCOc4ccc(C)cc43)CC2)cc1	0%
CCOC(=O)c1ccc(N2CCN(c3cccc(Cl)c3)CC2)c(NC(=O)Nc2ccc(OC)cc2OC)c1	-5%
O=C(CN1C(=O)COc2ccc(S(=O)(=O)N3CCCCCC3)cc21)N1CCN(c2cccc(Cl)c2)CC1	17%
Cc1ccc(-c2nc(C)c(CCNS(=O)(=O)c3ccccc3F)s2)cc1	-12%
Cc1ccc(Nc2ncnc3sc4c(c23)CCC(C)C4)cc1C (stereo not given)	3%
COc1ccc(OC)c(CNS(=O)(=O)c2c(C(=O)N3CCCCCC3)c(C)n(C)c2C)c1	-6%
CCCOc1ccc(C(=O)Nc2cccc(-c3nc4ccccc4[nH]3)c2)cc1	22%
CCCCOc1ccc(C(C)NC(=O)CN2C(=O)CSc3ccc(S(=O)(=O)N4CCOCC4)cc32)cc1 (stereo not given)	4%
O=C(CN1C(=O)C2CCCCN2c2ccc(C(=O)N3CCCC3)cc21)NCc1cccc(F)c1 (stereo not given)	0%
Cc1cccc(C)c1OC(=O)CSc1nnc(-c2cccs2)o1	-3%
O=C(COc1ccc(Cl)cc1)NCC(c1ccco1)S(=O)(=O)c1ccccc1 (stereo not given)	7%
COc1cc(Nc2nc(SCc3cccc(Cl)c3)nc3ccccc23)cc(OC)c1	2%
